Screening data: PubChem BioAssay, The Scripps Research Institute Molecular Screening Center
GSTO1 counter – blocks human GSTO1 in RBBP9 counter-screen | P78417 | recombinant GSTO1, activity-based probe fluorescence polarization | inhibition, % at 5.96 µM | 1.1% of 300,000 active | AID 1974;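 active = inhibition above the campaign mean inhibition plus 3 SD, cut at about 35% in these data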;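 note: 0% = GSTO1-1 with DMSO and 100% = wells lacking GSTO1-1 enzyme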
PAFAH2 FP inh – PAFAH2 (human) inhibition; 0.99% of 340,000 active; recombinant PAFAH2, FP-rhodamine activity probe, fluorescence polarization; inhibition, % at 3.39 µM; Q99487; AID 492956;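 active = inhibition above the mean over all tested compounds plus 3 SD, cut at about 30% in these data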;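 note: inhibitors block probe labeling of enzyme so polarization drops; 0% = enzyme with DMSO and 100% = wells lacking PAFAH2 protein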
LYPLA1 inh – blocks human lysophospholipase 1, a PME1 counter-screen; inhibition, % at 5.9 µM; 0.16% of 320,000 active; recombinant LYPLA1, FP-Rh probe fluorescence polarization; O75608;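 active = inhibition above the mean of all tested compounds plus 3 SD, set per campaign, cut at about 14% in these data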;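 note: inhibitors block serine hydrolase probe labeling of LYPLA1 so polarization falls; 0% = enzyme with DMSO and 100% = wells lacking LYPLA1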
Target sequence (O75608 whole entry, looked up): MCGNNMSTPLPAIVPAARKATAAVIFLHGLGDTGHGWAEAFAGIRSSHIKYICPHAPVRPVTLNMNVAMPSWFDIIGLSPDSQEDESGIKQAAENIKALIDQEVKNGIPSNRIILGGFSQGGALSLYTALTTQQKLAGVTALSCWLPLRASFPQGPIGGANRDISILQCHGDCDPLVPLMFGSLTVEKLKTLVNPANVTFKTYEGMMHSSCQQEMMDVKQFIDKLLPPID
LYPLA2 inh – blocks human lysophospholipase 2, a PME1 counter-screen. O95372. recombinant LYPLA2, FP-Rh probe fluorescence polarization. inhibition, % at 5.9 µM. 0.38% of 320,000 active. AID 2177;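 active = inhibition above the screen-wide mean plus 3 SD, limit set per campaign, cut at about 26% in these data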;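 note: 0% = LYPLA2 with DMSO and 100% = wells lacking LYPLA2 enzyme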
PAD4 FP inh – PAD4 (human) enzyme inhibition | Q9UM07 | recombinant PAD4, RCA probe fluorescence polarization | inhibition, % at 6.36 µM | 0.41% of 330,000 active | AID 485272;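 active = percent inhibition above a cutoff equal to the mean of all tested compounds plus 3 SD, cut at about 15% in these data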;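 note: 0% = PAD4 with RCA probe and DMSO and 100% = probe without PAD4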
PREPL inh – human PREPL enzyme inhibition. inhibition, % at 5.96 µM. recombinant PREPL, fluorescence polarization activity-based probe. 0.68% of 320,000 active. Q4J6C6; in the data active = inhibition above about 43%;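 note: 0% = enzyme with DMSO and 100% = wells lacking enzyme; many of its hits are not listed in these tables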
PAFAH1B3 inh – inhibitors of human PAFAH1B3; 0.28% of 340,000 active; recombinant PAFAH1B3, FP-rhodamine probe, fluorescence polarization; Q15102; AID 492972; inhibition, % at 3.39 µM;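 active = inhibition above the screen-wide average of all tested compounds plus 3 SD, cut at about 25% in these data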;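 note: 0% = enzyme with DMSO only and 100% = wells lacking PAFAH1B3 protein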
Target sequence (Q15102 whole entry, looked up): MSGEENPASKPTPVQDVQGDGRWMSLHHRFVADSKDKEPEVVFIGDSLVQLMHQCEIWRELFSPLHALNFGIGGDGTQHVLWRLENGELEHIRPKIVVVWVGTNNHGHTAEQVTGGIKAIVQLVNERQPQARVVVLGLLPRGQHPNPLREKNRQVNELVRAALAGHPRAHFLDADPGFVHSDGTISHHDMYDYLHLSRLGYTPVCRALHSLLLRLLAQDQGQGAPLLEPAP
pPAFAH FP inh – pPAFAH (human) enzyme inhibition | 1.5% of 330,000 active | Q13093 | inhibition, % at 3.39 µM | recombinant pPAFAH, FP-rhodamine probe fluorescence polarization;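 active = inhibition above the mean inhibition across the screen plus 3 SD, cut at about 25% in these data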;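 note: inhibitors block binding of the rhodamine activity-based probe so polarization drops; 0% = enzyme with DMSO and 100% = wells lacking pPAFAH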
Target sequence (Q13093 whole entry, looked up): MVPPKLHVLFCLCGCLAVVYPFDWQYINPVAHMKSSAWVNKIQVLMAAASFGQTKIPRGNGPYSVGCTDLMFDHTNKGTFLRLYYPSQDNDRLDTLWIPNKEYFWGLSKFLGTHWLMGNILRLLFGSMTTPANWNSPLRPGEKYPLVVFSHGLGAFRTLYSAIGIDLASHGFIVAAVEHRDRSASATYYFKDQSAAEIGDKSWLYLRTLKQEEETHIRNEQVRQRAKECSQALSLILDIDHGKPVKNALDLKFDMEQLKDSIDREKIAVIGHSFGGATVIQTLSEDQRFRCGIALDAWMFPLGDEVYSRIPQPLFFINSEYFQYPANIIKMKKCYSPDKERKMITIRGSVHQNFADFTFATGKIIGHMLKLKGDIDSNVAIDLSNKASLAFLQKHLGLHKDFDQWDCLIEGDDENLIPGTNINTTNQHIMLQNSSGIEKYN
Starred values were filed as active, the others as inactive; / = no result given.

[1] O=C1N2CCCc3cccc(c32)C12Nc1ccccc1S2 (stereo unspecified)
[2] COCCCn1c(C(=O)NCCC2=CCCCC2)cc2c(=O)n3ccccc3nc21
[3] Cc1ccc(C(=O)NCc2nnc(SCC(=O)Nc3sc4c(c3C#N)CCCC4)n2C)cc1
[4] Cc1ccc(SCc2nc(-c3cccnc3)no2)cc1
[5] CC(OC(=O)C1CCN(S(=O)(=O)c2ccc(Cl)cc2)CC1)C(=O)NC1CCCCC1C (stereo unspecified)
[6] O=C(COC(=O)C1(c2ccc(Cl)cc2)CCCC1)N1CCc2ccccc21
[7] O=C1OCCN1C(=O)[C@H]1[C@H](c2ccc(F)cc2)C(c2ccccc2)=NN1c1ccccc1
[8] CCOc1ncccc1C(=O)NNC(=O)CSc1ccc(Cl)cc1

assay / compound | 1 | 2 | 3 | 4 | 5 | 6 | 7 | 8
GSTO1 counter | / | -3 | 0 | -5 | 1 | -5 | / | /
PAFAH2 FP inh | 0 | 8 | 1 | -3 | 1 | -8 | 3 | 9
LYPLA1 inh | / | -1 | 2 | 1 | 2 | -5 | / | /
LYPLA2 inh | / | 2 | 7 | 5 | 7 | -8 | / | /
PAD4 FP inh | / | -2 | 2 | -1 | -3 | -1 | 1 | 0
PREPL inh | / | 8 | 10 | 7 | 9 | -17 | / | 10
PAFAH1B3 inh | 3 | 5 | 4 | 4 | 9 | -4 | 11 | 2
pPAFAH FP inh | / | 5 | 6 | 13 | 2 | -8 | 5 | 4

[9] O=C(CCNC(=O)Cn1ccc2ccccc2c1=O)NCC1CCCC1c1ccccc1 (stereo unspecified)
[10] N/C(=N\OC(=O)CSc1ccccc1)c1ccncc1
[11] CCC(NS(=O)(=O)c1c(C)[nH]c(=O)[nH]c1=O)C12CC3CC(CC(C3)C1)C2 (stereo unspecified)
[12] O=C(c1ccccc1)C1N=NCC1c1ccc(Cl)cc1 (stereo unspecified)
[13] CCSc1nnc(NC(=O)c2nc(-c3ccccc3)n(-c3ccccc3)n2)s1
[14] O=C(N[C@H](Cc1cc(=O)[nH]c2ccccc12)C(=O)O)c1ccc(Cl)cc1
[15] CC1(c2ccccc2)NC(=O)N(CC(=O)Nc2ccccc2N2CCCCC2)C1=O (stereo unspecified)
[16] Cc1ccc(CNC(=O)C(=O)NCCC2CCCCN2S(=O)(=O)c2ccc(C)cc2)cc1 (stereo unspecified)

assay / compound | 9 | 10 | 11 | 12 | 13 | 14 | 15 | 16
GSTO1 counter | -2 | -5 | -3 | / | -17 | / | 8 | -1
PAFAH2 FP inh | -6 | 4 | 14 | -5 | 3 | 2 | 1 | 1
LYPLA1 inh | 4 | 1 | -2 | / | 3 | / | -2 | -4
LYPLA2 inh | 18 | -5 | 0 | / | 6 | / | 1 | -5
PAD4 FP inh | -4 | 0 | -4 | / | -2 | / | 4 | -1
PREPL inh | 8 | -5 | 15 | / | -8 | / | 3 | 7
PAFAH1B3 inh | 1 | 1 | 2 | 2 | 4 | 14 | 6 | 2
pPAFAH FP inh | -5 | -8 | -1 | / | 7 | / | -3 | 8

[17] COc1ccc([C@@H]2CC=C(C(=O)O)CN2S(=O)(=O)c2ccc(Cl)cc2)cc1
[18] CC1CC(C)CN(C(=O)COC(=O)Cc2ccc(Br)cc2)C1 (stereo unspecified)
[19] Cn1c(N)c(C(=O)COC(=O)C2(c3ccc(Cl)cc3)CCCC2)c(=O)n(C)c1=O
[20] COc1ccc(CCNS(=O)(=O)c2ccc(Br)cc2)cc1
[21] CC(=O)Oc1c(Cl)c(N2CCOCC2)c(OC(C)=O)c2ccccc12
[22] CC(C)(C)NC(=O)c1cccc(NC(=O)CSc2ccc(Cl)cc2)c1
[23] CC(=O)N(C(C)=O)C1=C(C#N)C2(CCCCC2)Cc2ccccc21
[24] CC1C(=O)Nc2ccccc2N1C(=O)c1ccc(Cl)cc1 (stereo unspecified)

assay / compound | 17 | 18 | 19 | 20 | 21 | 22 | 23 | 24
GSTO1 counter | 10 | 2 | 5 | -1 | 44* | 0 | 2 | 2
PAFAH2 FP inh | -1 | 5 | 5 | 8 | -7 | 2 | 12 | 3
LYPLA1 inh | -1 | 1 | 2 | -1 | -2 | 2 | -3 | -3
LYPLA2 inh | -5 | -6 | -1 | 2 | 6 | 5 | -7 | -8
PAD4 FP inh | 1 | 1 | 2 | 0 | -5 | 1 | 2 | 1
PREPL inh | 5 | -6 | -52 | -51 | 5 | 9 | -18 | 10
PAFAH1B3 inh | 7 | 1 | 5 | 6 | -1 | -4 | 7 | 10
pPAFAH FP inh | 0 | 4 | -5 | 17 | 2 | 13 | 5 | 1

A draw from above in order of number of heavy atoms, lowest first:
[18] CC1CC(C)CN(C(=O)COC(=O)Cc2ccc(Br)cc2)C1 (stereo unspecified)
[2] COCCCn1c(C(=O)NCCC2=CCCCC2)cc2c(=O)n3ccccc3nc21
[7] O=C1OCCN1C(=O)[C@H]1[C@H](c2ccc(F)cc2)C(c2ccccc2)=NN1c1ccccc1

assay / compound | 18 | 2 | 7
GSTO1 counter | 2 | -3 | /
PAFAH2 FP inh | 5 | 8 | 3
LYPLA1 inh | 1 | -1 | /
LYPLA2 inh | -6 | 2 | /
PAD4 FP inh | 1 | -2 | 1
PREPL inh | -6 | 8 | /
PAFAH1B3 inh | 1 | 5 | 11
pPAFAH FP inh | 4 | 5 | 5

New compounds follow
[25] CC(C)(CCC(=S)N1CCOCC1)c1ccccc1
[26] COc1ccccc1NC(=O)OC(C)c1ccc(Cl)cc1 (stereo unspecified)
[27] FC(F)(F)c1cccc(Cn2nnnc2-c2ccc(Cl)cc2)c1
[28] O=C(CSc1ccc(Cl)cc1)Nc1cccc(NC(=O)c2ccco2)c1
[29] CN(c1ccc(C(=O)O)cc1)S(=O)(=O)c1ccc(Cl)cc1
[30] CC(C)(C)c1ccc(C(=O)N2CCNC(=O)C2CC(=O)Nc2ccc(F)cc2)cc1 (stereo unspecified)
[31] O=C1NC(=O)C2(CCCCCCCCCCC2)N1
[32] CCc1ccc(OCc2nnc(NC(=O)c3cccs3)s2)cc1

assay / compound | 25 | 26 | 27 | 28 | 29 | 30 | 31 | 32
GSTO1 counter | / | -3 | -3 | -5 | 0 | 1 | 8 | -2
PAFAH2 FP inh | -1 | 12 | -4 | -10 | -8 | -7 | 3 | -1
LYPLA1 inh | / | -3 | 1 | -17 | -1 | 3 | -2 | -1
LYPLA2 inh | / | 1 | 2 | -20 | -3 | 2 | -4 | -3
PAD4 FP inh | / | -3 | -4 | 1 | -3 | -1 | 2 | 0
PREPL inh | / | 4 | 0 | -35 | 8 | 9 | -4 | -16
PAFAH1B3 inh | 4 | 3 | 3 | -2 | -1 | 0 | -3 | 4
pPAFAH FP inh | / | 3 | 3 | 3 | 1 | -1 | 0 | -2

[33] Cc1ccc(SCc2ccc(C(=O)NCc3cccnc3)cc2)cc1
[34] O=C(NNS(=O)(=O)c1ccc(Cl)cc1)c1cccc(S(=O)(=O)N2CCOCC2)c1
[35] CCOc1ccc(C(=O)N2CCCC2)cc1
[36] COc1ccc(C)cc1NC(=O)CSc1ccc(Cl)cc1
[37] Fc1ccc(Br)cc1C1C=C(c2ccc(Br)s2)Nc2ncnn21 (stereo unspecified)
[38] O=C(CSc1nc2ccccc2c(=O)n1CCCN1CCOCC1)NC12CC3CC(CC(C3)C1)C2
[39] COc1ccc(OCC(=O)NNC(=O)c2cccc(S(=O)(=O)N(C)C)c2)cc1
[40] CCS(=O)(=O)c1nc(S(=O)(=O)c2ccc(C)cc2)c(N2CC(C)CC(C)C2)s1 (stereo unspecified)

assay / compound | 33 | 34 | 35 | 36 | 37 | 38 | 39 | 40
GSTO1 counter | -1 | 1 | 2 | -1 | -17 | 6 | 4 | -4
PAFAH2 FP inh | 3 | 6 | 6 | -1 | 27 | 3 | -4 | 12
LYPLA1 inh | 0 | -1 | 0 | -5 | -4 | 2 | 0 | 1
LYPLA2 inh | 5 | 8 | 3 | -3 | 2 | 2 | -2 | -2
PAD4 FP inh | -8 | 6 | 5 | -3 | -6 | -2 | -2 | -2
PREPL inh | -25 | -6 | 19 | -2 | -14 | -1 | -2 | -2
PAFAH1B3 inh | -2 | 12 | 8 | 1 | 2 | 7 | -3 | 7
pPAFAH FP inh | 0 | 0 | -2 | 4 | 12 | 2 | 3 | 4

Given as tab-separated lines: 2 of the compounds above
cpd	compound	GSTO1 counter	PAFAH2 FP inh	LYPLA1 inh	LYPLA2 inh	PAD4 FP inh	PREPL inh	PAFAH1B3 inh	pPAFAH FP inh
37	Fc1ccc(Br)cc1C1C=C(c2ccc(Br)s2)Nc2ncnn21 (stereo unspecified)	-17	27	-4	2	-6	-14	2	12
38	O=C(CSc1nc2ccccc2c(=O)n1CCCN1CCOCC1)NC12CC3CC(CC(C3)C1)C2	6	3	2	2	-2	-1	7	2

Continued.
[41] CSc1ccccc1NC(=O)c1cccc(S(=O)(=O)N2CCN(C)CC2)c1
[42] Cc1ccccc1CSCC(=O)NC1CCCC1
[43] N#CC1=C(N)NC(SCc2ccc(Cl)cc2)=C(C#N)C12CCCCC2
[44] Cc1ccc(SCc2ccc(C(=O)Nc3nccs3)o2)cc1
[45] Cn1c(N)c(C(=O)COC(=O)CSc2ccc(Cl)cc2)c(=O)n(C)c1=O
[46] CCC(NC(=S)NCc1ccc(F)cc1)c1ccc(C)cc1 (stereo unspecified)
[47] O=C(NCCC(NS(=O)(=O)OCC(Cl)(Cl)Cl)c1ccccc1)C(F)(F)F (stereo unspecified)
[48] N/C(CSc1ccc(Cl)cc1)=N\NC(=O)c1ccncc1

assay / compound | 41 | 42 | 43 | 44 | 45 | 46 | 47 | 48
GSTO1 counter | 6 | 7 | -51 | 3 | 1 | 5 | -5 | 3
PAFAH2 FP inh | 2 | -1 | -4 | -2 | 5 | 5 | 7 | 11
LYPLA1 inh | 3 | 1 | -5 | -3 | -4 | 5 | -2 | 2
LYPLA2 inh | 3 | 1 | 4 | -9 | -1 | 5 | -1 | -1
PAD4 FP inh | 1 | -2 | 1 | -2 | -3 | 5 | 6 | -4
PREPL inh | 2 | -1 | 17 | -19 | 18 | 1 | 11 | -1
PAFAH1B3 inh | 1 | 0 | 3 | 5 | 10 | 12 | 6 | 0
pPAFAH FP inh | -1 | 2 | 4 | 0 | -8 | -1 | 4 | 0

[49] O=C(c1ccncc1)N1CCN(C(=O)c2cccs2)CC1
[50] O=C(CN1CCN(S(=O)(=O)c2ccc(Br)cc2)CC1)N/N=C/c1ccc(Cl)c([N+](=O)[O-])c1
[51] Cc1ccc(N(C)C(=O)c2cc(S(=O)(=O)N3CCCC3)cn2C)cc1
[52] COc1ccc(OCC(=O)NS(=O)(=O)c2ccc(Cl)cc2)cc1
[53] CC(=O)Nc1ccc(NC(=O)C(C)OC(=O)C2(c3ccc(Cl)cc3)CCCC2)cc1 (stereo unspecified)
[54] Cc1cccc(NC(=O)CC2C(=O)NCCN2C(=O)Nc2ccc(Cl)cc2)c1 (stereo unspecified)
[55] CCc1ccc(OCc2n[nH]c(=S)n2C(C)CCCC(C)C)cc1 (stereo unspecified)
[56] O=C(O)C1CCC(c2ccc(-c3ccccc3)cc2)CC1 (stereo unspecified)
[57] CC(Oc1ccc(Cl)cc1)c1ccnn1S(=O)(=O)c1ccc(Cl)cc1 (stereo unspecified)
[58] N#C/C(=C(/O)c1cccc(F)c1)c1nc2ccccc2s1

assay / compound | 49 | 50 | 51 | 52 | 53 | 54 | 55 | 56 | 57 | 58
GSTO1 counter | 0 | 3 | -1 | 2 | 1 | / | 0 | 9 | 9 | -27
PAFAH2 FP inh | 7 | -3 | -1 | 8 | -7 | 9 | -3 | 2 | 9 | 7
LYPLA1 inh | 0 | -2 | 0 | 5 | -3 | / | -2 | -5 | -4 | -1
LYPLA2 inh | 2 | -2 | 2 | 4 | -1 | / | -1 | 1 | -5 | 1
PAD4 FP inh | -4 | 2 | -3 | 1 | 1 | / | 1 | -3 | 1 | -9
PREPL inh | -4 | 16 | 14 | -4 | -4 | / | -30 | 2 | -19 | -6
PAFAH1B3 inh | 9 | 3 | 0 | 11 | 0 | 13 | 10 | 15 | -6 | 3
pPAFAH FP inh | -3 | 3 | 1 | -2 | 3 | / | 10 | 3 | -6 | 7

A portion of the library, so the mix of outcomes need not match the whole.
